# Screens: PubChem, National Center for Advancing Translational Sciences (NCATS)
# VDR inh: inhibitors of human vitamin D receptor. Potency, µM, for the others: max response, negative = inhibition, most hits filed as inhibitors. AID 504847. VDR-SRC2-3 peptide fluorescence polarization, 2 h. actives 0.93% (n = 400,000). P11473; active = well fitted inhibition curve with a large enough effect; inconclusive = small, poorly fitted or top-dose-only effect, or another doubt; inactive = no such curve, though single readings can be large or run the other way; note: series mostly up to about 120 µM
# Target sequence (P11473 whole entry, looked up): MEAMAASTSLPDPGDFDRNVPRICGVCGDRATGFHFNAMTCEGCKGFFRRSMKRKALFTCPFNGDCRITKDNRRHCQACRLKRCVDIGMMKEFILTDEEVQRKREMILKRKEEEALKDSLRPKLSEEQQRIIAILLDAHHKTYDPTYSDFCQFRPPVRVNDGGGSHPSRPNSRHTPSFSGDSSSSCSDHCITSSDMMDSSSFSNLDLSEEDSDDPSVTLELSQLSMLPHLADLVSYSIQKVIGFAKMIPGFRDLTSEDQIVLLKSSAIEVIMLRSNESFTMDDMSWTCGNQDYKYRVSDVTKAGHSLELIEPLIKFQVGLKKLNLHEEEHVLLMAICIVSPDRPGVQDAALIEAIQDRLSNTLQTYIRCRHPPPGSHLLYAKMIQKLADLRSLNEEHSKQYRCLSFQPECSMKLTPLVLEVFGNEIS
#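 Reagent solutions, kept cold and dark, are dispensed first; compounds are then pinned in at 23 nl, plates briefly spun, and incubated 2 h at ambient temperature. Inhibition of VDR–SRC2-3 peptide binding is read by fluorescence polarization.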
# Numbers without * were called inactive; ? = inconclusive; & = joins results of further samples; [ ] = dose if it differs, or a comment. % is set by controls: 0 for no effect and ±100 for the full control effect; potency is the fitted concentration of half-maximal effect.
VDR inh	SMILES
17%	COc1ccc(OC)c(C2=NO[C@@](CC(=O)O)(C(=O)Nc3ccc4c(c3)OCCO4)C2)c1
13%	Cc1cc(C)cc(N(C(=O)c2csnn2)C(C(=O)NC(C)(C)C)c2cccs2)c1 (stereo not given)
-7%	CCc1c(C)nc2ncnn2c1N1CCCC(C(=O)NCCc2ccccc2)C1 (stereo not given)
-1%	Cc1ccccc1NC(=O)c1ccccc1
3%	COc1cc(NC(C(=O)Nc2cccc(C(C)=O)c2)c2ccccc2)cc(OC)c1OC (stereo not given)
?	COc1cccc2sc(NN)nc12
?	Cc1ccc(NCC(=O)c2ccc([N+](=O)[O-])cc2)cc1
4%	CCCC1SCC(C)(C)NC1=O (stereo not given)
15%	C=CCn1c(CCNC(=O)c2cccs2)nnc1SCC(=O)Nc1cccc(F)c1
-3%	CCOC(=O)C1CCN(C(=O)CCS(=O)(=O)c2cc3c(cc2Cl)NC(=O)CO3)CC1
-6%	Nc1nnc(SCCCOc2ccc(F)cc2)s1
-11%	COc1cccc(C2=CC(c3cc(OC)ccc3OC)n3nnnc3N2)c1 (stereo not given)
-10%	Cc1nn(CC(=O)OCC(=O)NC(C)c2ccccc2)c(C)c1[N+](=O)[O-] (stereo not given)
3%	O=C(NCc1ccccc1Cl)c1ccc2oc(=O)n(Cc3ccccc3)c2c1
-17%	CC1CC(=O)Nc2ccccc2N1S(=O)(=O)c1ccc(Cl)cc1 (stereo not given)
-3%	CCN(CC)CCOc1nc(C)nc2c1oc1ccccc12
0%	CC(C)c1nn2c(=O)cc(COC(=O)c3ccc(NC(=O)CCc4ccccc4)cc3)nc2s1
17%	COc1cccc(-n2c(SC)nnc2-c2cnccn2)c1
-7%	C=CCN1C(=O)C(CC(=O)Nc2ccc(OCC)cc2)N(Cc2ccccn2)C1=S (stereo not given)
-3%	CCOC(=O)c1ccc(NC(=O)CSc2nc3ncc(Br)c(C)c3[nH]2)cc1
9%	O=C(/C=C/c1ccccc1)N(Cc1cccc(Cl)c1)C1CCS(=O)(=O)C1 (stereo not given)
5%	COc1ccc(/C=N/n2cnc3c(sc(=S)n3-c3ccccc3)c2=O)cc1
-7%	Cc1c(Cl)cccc1NC(=O)c1ccc(C(=O)Nc2cccc(Cl)c2C)cc1
50µM*	CC(=O)Nc1ccc(SCCN2CCN(CC(C)C)CCC2=O)cc1

# Structures listed so far that have two or more sulfur atoms:
VDR inh	SMILES
13%	Cc1cc(C)cc(N(C(=O)c2csnn2)C(C(=O)NC(C)(C)C)c2cccs2)c1 (stereo not given)
15%	C=CCn1c(CCNC(=O)c2cccs2)nnc1SCC(=O)Nc1cccc(F)c1
-6%	Nc1nnc(SCCCOc2ccc(F)cc2)s1
5%	COc1ccc(/C=N/n2cnc3c(sc(=S)n3-c3ccccc3)c2=O)cc1

# (next part)
VDR inh	SMILES
-5%	CCOC(=O)/C(C#N)=C/c1c(N2CCN(C)CC2)nc2c(C)cccn2c1=O
-21%	COCCNC(=O)[C@@H]1CSC2c3ccccc3C(=O)N21 (stereo not given in full)
12%	CN(C)C(=O)COC(=O)/C=C/c1ccccc1[N+](=O)[O-]
-4%	O=c1cc(Cn2ccnc2)c2cc3c(cc2o1)CCC3
7%	CCOC(=O)C(NC(C)=O)(Nc1ccc(S(=O)(=O)Nc2ccncn2)cc1)C(F)(F)F (stereo not given)
-26%	Cc1c(C)n(C)c2ccc(C(=O)NCCc3ccco3)cc12
-26%	O=C(Cn1c(=O)cnc2ccccc21)NNC(=O)c1ccc(Cl)cc1
3%	Cc1nn(-c2ccccc2)c(Cl)c1/C=C(/CC(=O)O)c1nc2ccccc2s1
13%	COc1ccc(C(=O)NC2CCN(C(=S)NCc3ccco3)CC2)cc1
-21%	Cc1cccc(-n2c(C)n[nH]c2=S)c1C
1%	COc1cccc2cc(-c3nc(-c4ccccc4F)no3)c(=O)oc12
1%	CCOC(=O)c1ccc(NC(=O)c2ccccc2C)cc1

# The list goes on, overlapping the part above by three compounds.
VDR inh	SMILES
-21%	Cc1cccc(-n2c(C)n[nH]c2=S)c1C
1%	COc1cccc2cc(-c3nc(-c4ccccc4F)no3)c(=O)oc12
1%	CCOC(=O)c1ccc(NC(=O)c2ccccc2C)cc1
2%	COc1ccc(CCN(C(=S)Nc2ccccc2)C2CC(=O)N(c3ccccc3)C2=O)cc1 (stereo not given)
-4%	Cc1ccc2cc(C=O)c(Cl)nc2c1
5%	COc1ccc(N=NC2=C(O)CC(C)(C)CC2=O)c(OC)c1
10%	Cc1cc(C)c2ccc3c(C)c(C)n(C)c3c2n1
-8%	Cc1ccnc(NC(=O)C(C)n2cc([N+](=O)[O-])cn2)c1 (stereo not given)
11%&12%	Cc1cc(=O)n2nc(N3CCC(C(=O)NCc4ccccc4F)CC3)sc2n1
-11%	CC(=O)N1CCN(c2ccc(NC(=S)NC(=O)COc3ccc(C(C)(C)C)cc3)cc2)CC1
4%	CCCN1CCN(CC(=O)Nc2nnc(CC)s2)CC1
-3%	COc1ccc(Nc2cc(Nc3ccc(OC)cc3)ncn2)cc1
-9%	COC(=O)[C@@]12CCCN1[C@H](c1ccc(-c3cccc(Cl)c3)c(OC)c1)[C@H]1C(=O)N(C)C(=O)[C@H]12
-8%	O=S(=O)(Nc1cccnc1)c1cccc2ccccc12
6%	Cc1cc(=O)[nH]c(SCC(=O)Nc2ccc(F)c([N+](=O)[O-])c2)n1
6%	COc1ccc(-n2c(=O)c3ccccc3n(CC(=O)NC3CCCC3)c2=O)cc1
3%	COc1cccc(-c2nc(N3CCNCC3)c3ccccc3n2)c1
6%	Cc1c(O)ccc2c(-c3ccccc3)cc(=O)oc12
4%	CCN(CC1CCCN(CCc2cccc(OC)c2)C1)C(=O)c1ccoc1C (stereo not given)
-7%	COC(CN(C)C(=O)C1CCC(CNS(=O)(=O)c2ccccc2)CC1)OC (stereo not given)
-22%	Cc1oc2cc([N+](=O)[O-])c(O)c([N+](=O)[O-])c2c1C(=O)c1ccc(Cl)cc1
-10%	CCCC(C(=O)NC1CCCC1)N(C(=O)c1snc(C(N)=O)c1N)c1ccc(OCC)cc1 (stereo not given)
13%	CCCCNC(=O)CSc1nc(COc2ccccc2)nc2ccccc12
5%	Nc1ccccc1Nc1ccccc1
-2%	O=C(CN1CCN(Cc2ccccc2)CC1)N/N=C/c1ccccc1F
2%	Cc1ccccc1NC(=O)c1c(F)c(F)c(F)c(F)c1F
-5%	COCCNC(=O)/C(C#N)=C/c1c(N2CCN(c3ccc(OC)cc3)CC2)nc2c(C)cccn2c1=O
15%	COc1ccc(NC(=O)CSc2nnc(-c3ccc(C)cc3)o2)cc1
-2%	CC(C)(CCO)NC(=S)NC1CC2C=CC1C2 (stereo not given)
11%	Cc1cc(C)cc(NC(=O)Cn2c(=O)oc3cc(S(=O)(=O)N4CCCC4)ccc32)c1
-5%	COc1ccccc1-c1cc(-c2ccccc2)nc(SC(C(N)=O)c2ccccc2)c1C#N (stereo not given)
-1%	Cc1cc(N2CCCC2=O)cc(C)c1S(=O)(=O)NCCOc1ccc(C(C)(C)C)cc1
?	COc1ccc(-c2nc(-c3ccccc3)c(NC(C)C)o2)cc1
6%	COC(=O)CCNC(=O)Cc1ccc(S(=O)(=O)N2CCCCC2)s1
-6%	O=C(CSc1nnc2scc(-c3ccccc3)n12)N1CCN(Cc2ccccc2)CC1
4%	Cc1ccc(NC(=O)C2CCCN2S(=O)(=O)c2cccc3nsnc23)cc1Cl (stereo not given)
-7%	Cc1ccc(/C=N/OC(=O)c2c(C)noc2-c2snnc2C)cc1
-1%	O=c1c(-c2ccc3c(c2)OCCO3)c(C(F)(F)F)oc2cc(O)cc(O)c12
?	Cc1ccc(NC(=O)C2CCCN(S(=O)(=O)c3c(C)n[nH]c3C)C2)c(C)c1 (stereo not given)

# Of the compounds above, 3 contain a cyano group:
VDR inh	SMILES
-5%	CCOC(=O)/C(C#N)=C/c1c(N2CCN(C)CC2)nc2c(C)cccn2c1=O
-5%	COCCNC(=O)/C(C#N)=C/c1c(N2CCN(c3ccc(OC)cc3)CC2)nc2c(C)cccn2c1=O
-5%	COc1ccccc1-c1cc(-c2ccccc2)nc(SC(C(N)=O)c2ccccc2)c1C#N (stereo not given)

# More compounds
VDR inh	SMILES
15%	COc1ccccc1C(=O)NN1C(=O)C2C3C=CC(O3)C2C1=O (stereo not given)
-4%	COc1ccc(C(c2nnnn2C2CCCCC2)N2CCN(C)CC2)c(OC)c1 (stereo not given)
-19%	COc1ccccc1C1c2c(C)nn(-c3ccccc3)c2NC(=O)C1NC(=O)c1ccccc1 (stereo not given)
?	CC(C)NC(=O)CSc1c2c(nc3ccccc13)CCCC2
?	CCCCCOc1ccc(/C=C/C(=O)Nc2sc(C)c(C)c2C(=O)OCC)cc1OC
5%	CC(Oc1cccc(Cl)c1)C(=O)Nc1ccccc1N1CCCC1 (stereo not given)
-10%	COc1ccc(-n2nc(C(=O)N(C)c3cccc(C(F)(F)F)c3)c3c4ccccc4n(C)c3c2=O)cc1
?	O=C(Nc1ccc(S(=O)(=O)Nc2cnc3ccccc3n2)cc1)c1ccc(Cl)c([N+](=O)[O-])c1
7%	COc1ccc(S(=O)(=O)N2CCN(C)CC2)cc1C(=O)N1CCCCC1
23%	CC(OC(=O)c1cnc(Cl)c(Cl)c1)C(=O)NCc1ccccc1 (stereo not given)
9%	CCCCC(=O)NC(c1ccccc1Cl)c1ccc2cccnc2c1O (stereo not given)
0%	CCc1cccc(C)c1NC(=O)COC(=O)c1c2c(nc3ccccc13)/C(=C\c1cccs1)CCC2
-4%	Cc1cccc(/C=C(\C#N)C(=O)Nc2ccccn2)c1
-6%	CCn1c(=O)c(C(=O)Nc2ccc(C)cc2C)c(O)c2ccccc21
7%	N#Cc1c(NC(=O)C2CCCO2)sc2c1CCCCC2 (stereo not given)
-6%	Cc1cc(C)nc(N(C#N)S(=O)(=O)c2ccccc2)n1
-25%&-1%	CCOC(=O)c1c(CN2CCCCC2)oc2ccc(OC)cc12
11%	CC1CC(C)CN(C(=O)Cn2c(-c3nonc3N)nc3ccccc32)C1 (stereo not given)
2%	CCNC(=O)NC(=O)C(C)OC(=O)c1ccc(-n2nc(SC)sc2=S)cc1 (stereo not given)
-2%	COc1ccc(C2CC(C(F)(F)F)n3nc(C(=O)NCc4c(C)nn(C)c4C)c(Cl)c3N2)cc1 (stereo not given)
-3%	COC(=O)C1=C(C)N(c2ccc(C)c(C)c2)/C(=C/c2cccs2)C1=O
2%	Cn1c(SCC#N)nnc1-c1cnccn1
0%	Cc1ccc(Nc2cc(Cl)nc(N)n2)c([N+](=O)[O-])c1
-15%	COc1ccc(OC)c(NS(=O)(=O)c2ccc(Cl)nc2)c1

# As entered above:
# Cc1cc(C)nc(N(C#N)S(=O)(=O)c2ccccc2)n1 in VDR inh is entered as -6%
# Cc1cccc(/C=C(\C#N)C(=O)Nc2ccccn2)c1 in VDR inh is entered as -4%
# N#Cc1c(NC(=O)C2CCCO2)sc2c1CCCCC2 (stereo not given) in VDR inh is entered as 7%
# CC1CC(C)CN(C(=O)Cn2c(-c3nonc3N)nc3ccccc32)C1 (stereo not given) in VDR inh is entered as 11%

# Other results follow.
VDR inh	SMILES
-17%	O=S(=O)(c1ccccc1)N1CCC2(CCCN(Cc3nccs3)C2)CC1
26%	Cc1c(C(=O)N(CCc2ccccc2)Cc2ccccc2)cccc1[N+](=O)[O-]
-20%	COc1ccc(NC(=O)CN(C)CCOc2ccc(Cl)cc2)cc1OC
-6%	O=C(CSc1ncc(S(=O)(=O)c2ccccc2)c(=O)[nH]1)Nc1ccccc1Cl
?	COCCNc1ccnc(-c2ccccc2C)n1
10%	COc1cccc(Nc2sc(C(=O)c3ccc(Cl)cc3)c(N)c2C(=O)NCCc2ccc(OC)c(OC)c2)c1
23%	NS(=O)(=O)c1ccc(CCNC(=O)CNC(=O)c2ccc(F)cc2)cc1
23%	CN(CC(=O)Nc1ccccc1Cl)CC(=O)Nc1sc2c(c1C(N)=O)CCC2
-1%	CCCCNc1nc(Oc2ccc(=O)n(-c3ccccc3)n2)nc(N(CC)CC)n1
0%	C=CC[C@@H]1[C@H](O)CC[C@@]2(C)[C@H]1CC[C@@H]1[C@@H]2CC[C@]2(C)C([C@H](C)CCCC(C)C)CC[C@@H]12 (stereo not given in full)
-4%	COc1ccc2c(c1)c1nc3ccccc3nc1n2CC(=O)OC(C)C
1%	CCCC(=O)N(Cc1cc2ccccc2[nH]c1=O)c1ccccc1OC
-12%	COc1ccc(NC(=O)c2nc3nccc(C)n3n2)cn1
7%	COc1cc2c(cc1OC)CN(C(C)C(=O)N1CCc3ccccc31)CC2 (stereo not given)
3%	CCn1ncc(C(=O)Nc2ccc(S(=O)(=O)N3CCCC3)cc2)c1C
-23%	COc1ccc(CNc2cccc(C)n2)c(O)c1
?	CCN(c1ccccc1)S(=O)(=O)c1ccc(Cl)c(NC(=O)CSc2ncn[nH]2)c1
-5%	COc1ccccc1C(=O)C1CCCN(C(=O)c2cnn(C(C)C)c2)C1 (stereo not given)
-21%	CCCCn1c(N)c(N(CCC(C)C)C(=O)c2[nH]c(C)c(C(=O)OCC)c2C)c(=O)[nH]c1=O
-5%	CCCCN(Cc1ccccc1)S(=O)(=O)c1cc2c(cc1Br)CC(C)N2C(C)=O (stereo not given)
2%	CS(=O)(=O)Nc1ccc(C(=O)N2CCc3ccccc3C2)cc1
2%	COc1ccc(CNC(=O)Nc2cn(CC(C)C)c(=O)c3ccccc23)cc1
-1%	O=C(O)c1ccccc1C(=O)N1CCc2c([nH]c3ccccc23)C1C(F)(F)F (stereo not given)
42%[activator]	COc1ccc(-n2nc3c(c2NC(=O)c2ccc(Br)o2)CS(=O)(=O)C3)cc1
-21%	C[C@@H]1COC(=O)[C@@H](CC(=O)OC(C)(C)C)C/C=C\C[C@@H](CC(=O)N(CCO)Cc2ccccc2)C(=O)N1
-12%	Nc1nc(N)nc(-c2ccc(Cl)c(Cl)c2)n1
-1%	COc1ccc(NC(=O)Cc2nnc(N)s2)cc1
-11%	Cc1cccc(NS(=O)(=O)c2c(C(=O)N3CCOCC3)c(C)n(C)c2C)c1C

# Only part of the results is shown; the hit share may differ from the screen's.
